Screening data (PubChem BioAssay)
PrP UTR inh: suppresses PrP 5' UTR mRNA reporter expression; inhibition, % (test concentration not listed); cell-based PrP 5' UTR mRNA reporter, plate reader; actives 0.35% (n = 340,000);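 active = every replicate at 50% or more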;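 also: 0 = median of the neutral control wells; tested in H4 reporter cells; numbers are from one replicate; inactives centre near -14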
RN4220 kill: kills Staphylococcus aureus RN4220; S. aureus RN4220 growth, OD600, 16 h; inhibition, % (no concentration beside the values); actives 0.33% (n = 330,000); AID 1259311;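 active = z-score of -3 or lower and OD600 up to 0.18 on both plates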;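 also: plate controls were untreated cells for no effect and reference antibiotic for full effect; stock transfer was 100 nL into about 80 µL; one replicate is shown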
Bead autofluor: flagged as autofluorescent in microsphere protease counterscreen | compound autofluorescence counterscreen, microsphere flow cytometry; hits give high values | fluorescence intensity (concentration not given with the values) | actives 3.1% (n = 360,000);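 active = at least 3 SD above the mean of all compounds, about 16000 in these data; inconclusive = too few beads counted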;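 also: 100 nL of 1 mM stock went into each well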
Mtb hypoxia rep: inhibitors of hypoxia-regulated fluorescent reporter in Mycobacterium tuberculosis. actives 0.1% (n = 300,000). M. tuberculosis hypoxia-regulated fluorescent reporter, fluorescence. fluorescence inhibition, % (test concentration not listed);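 active = 35 to 45% if threefold the growth effect, above 45% if 1.5-fold the growth effect; inactive = the rest, general growth blockers included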;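 also: wells of about 50 µL received 100 nL stock; 0% = vehicle wells and 100% = reference inhibitor wells; whole bacteria with a GFP reporter of the hypoxia response; strong numbers were not always called active; many hits fall short of the cut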
Sa ugtP lethal: compounds lethal to S. aureus RN4220 ugtP deletion mutant. OD600 growth, 16 h; some inactives read as strong as hits. growth inhibition, % (test concentration not listed). actives 0.54% (n = 330,000);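 active = z-score under -3 and OD600 up to 0.15 on both plates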;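 also: plate controls were untreated wells for no effect and antibiotic for full effect; wells of about 80 µL received 100 nL stock; the first replicate is given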
BJeLR lethal: kills HRASV12-expressing BJeLR cells; actives 0.17% (n = 300,000); AID 1554; BJeLR (HRASV12) viability, CellTiter-Glo ATP luminescence, 48 h; reference of the scale not given here; inhibition, % (no concentration beside the values);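 active = replicate mean above 50%; inconclusive = above 50% but judged a plate artefact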;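 also: 50 nL library stock added to about 25 µL; numbers are from one replicate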
Mtb hypoxia rep growth: second read-out of Mtb hypoxia rep, no call of its own (marks repeat the call); growth inhibition, %; measured here: M. tuberculosis growth (absorbance);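 0% = vehicle and 100% = reference antibiotic; read after six days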
An asterisk follows results filed as active; ? = inconclusive; . = not tested or not shown. Random draw from the library; overall some 4% were active at least once.

cpd	canonical_smiles	PrP UTR inh	RN4220 kill	Bead autofluor	Mtb hypoxia rep	Mtb hypoxia rep growth	Sa ugtP lethal	BJeLR lethal
1	O=C(c1ccco1)N(CCO)Cc1cc2cc3c(cc2[nH]c1=O)OCO3	-13	-1.8	4460	-4	-1	-4	-8
2	O=C(COC(=O)[C@@H]1CC(O)CN1S(=O)(=O)c1ccc(Cl)cc1)NC(=O)NCc1ccccc1 (stereo partly drawn)	-2	4.3	6397	10	-3	9	3
3	Cn1c(=O)[nH]c(=O)c2c1nc(OC(=O)c1ccccc1)n2CC(O)COc1ccc(F)cc1 (stereo not drawn)	-14	7.9	16708*	-2	-4	7	2
4	CCCc1cc(=O)[nH]c(SCC(=O)N2CCC(C)CC2)n1	0	3.4	6500	-1	-5	3	-11
5	O=C(NC1CC(=O)N(c2ccc(Cl)cc2)C1)C1CC1 (stereo not drawn)	-18	1.1	4662	4	5	1	2
6	CN(C)c1nc(N(C)C)nc(N(C#N)Cc2ccc(Cl)cc2)n1	6	1.9	4049	1	4	-7	3
7	CC(=O)[C@@]1(O)CCC2C3CCC4=CC(=O)CC[C@]4(C)C3C(O)C[C@@]21C (stereo partly drawn)	.	2.7	.	-1	2	1	.
8	COc1cccc(OC)c1C(=O)Nc1ccc2c(c1)Cc1ccccc1-2	-9	9.0	4695	1	-1	-3	-3
9	COc1ccc2oc(C(=O)OCC(=O)N(C)CC(=O)Nc3ccc(C)cc3)c(C)c2c1	-10	5.8	5758	6	4	8	6
10	Cc1cc(NS(=O)(=O)c2ccc(NC(=O)c3cc(-c4cccnc4)nc4ccc(Cl)cc34)cc2)no1	0	3.7	11073	20	23	-3	4
11	Cc1cc(OC(=O)c2c(Cl)cccc2Cl)nc(C)n1	-9	1.6	?	-11	-6	0	-11
12	COc1cccc(-c2csc(N3CCN(Cc4ccccc4)CC3)n2)c1	-43	4.0	24520*	10	7	42	-6
13	COc1cc(NC(=O)c2cccs2)ccc1NC(=O)Cc1ccccc1	-9	5.0	5668	7	1	6	1
14	CC(C)Cn1c(=O)c2ccccc2n2c(CCC(=O)O)nnc12	.	4.9	3981	2	0	11	-6
15	COc1ccc(OC)c(-c2csc(N3CCC(c4ccccc4)CC3)n2)c1	-16	33	4228	-3	2	0	-6

Numbers 14–15 from above:
cpd	canonical_smiles	PrP UTR inh	RN4220 kill	Bead autofluor	Mtb hypoxia rep	Mtb hypoxia rep growth	Sa ugtP lethal	BJeLR lethal
14	CC(C)Cn1c(=O)c2ccccc2n2c(CCC(=O)O)nnc12	.	4.9	3981	2	0	11	-6
15	COc1ccc(OC)c(-c2csc(N3CCC(c4ccccc4)CC3)n2)c1	-16	33	4228	-3	2	0	-6

Next compounds
cpd	canonical_smiles	PrP UTR inh	RN4220 kill	Bead autofluor	Mtb hypoxia rep	Mtb hypoxia rep growth	Sa ugtP lethal	BJeLR lethal
16	CNC(=S)N(CCc1ccccc1)Cc1cc2cc(OC)c(OC)cc2[nH]c1=O	-6	2.3	2048	1	5	-3	-12
17	CC(Oc1ccc(F)cc1)c1ccnc2nc(/N=C/N(C)C)nn12 (stereo not drawn)	-14	.	2736	.	.	.	-2
18	COc1cc(C(=O)NCc2ccccn2)ccc1OCc1c(C)noc1C	-13	.	2498	.	.	.	3
19	CC(C)=NOCC(=O)Nn1c(COc2ccccc2)nc2ccccc2c1=O	-2	41	2925	4	1	10	2
20	CCOc1ccc2ccccc2c1/C=N/NC(=O)CC1(C)OCCCO1	-3	.	2028	.	.	.	4
21	CC1CN(C(C)CO)C(=O)c2cccc(NC(=O)c3ccncc3)c2OC1CN(C)Cc1ccc(C(=O)O)cc1 (stereo not drawn)	.	8.8	.	18	6	2	.
22	CN1CCCN(c2ncnc3scc(-c4ccc(F)cc4)c23)CC1	-18	2.2	2603	-1	2	0	6
23	COc1ccc(NC(=O)CC2C(=O)N(c3ccccc3)C(=O)N2Cc2ccco2)cc1 (stereo not drawn)	-34	7.3	3321	14	8	13	1
24	O=c1c2ccccc2nc(SCc2cn3ccsc3n2)n1-c1ccccc1F	-9	3.4	2980	-4	0	-24	-15
25	COCCN(C(=O)COC(=O)C12CC3CC(CC(Cl)(C3)C1)C2)c1c(N)n(Cc2ccccc2)c(=O)[nH]c1=O	13	-0.3	?	-9	-6	1	-2
26	COC(=O)c1c(NC(=O)COc2ccc(Cl)cc2)sc2c1CC(C)(C)NC2(C)C	-16	-7.0	5513	16	21	-21	35
27	CCCn1c(C)cc(/C=C(\C#N)C(=O)OCC(=O)NC(=O)NC(C)(C)C)c1C	-7	-1.5	2649	.	.	-3	-9
28	CC(C)c1ccc(N(C(=O)c2csnn2)C(C(=O)NC(C)(C)C)c2ccncc2)cc1 (stereo not drawn)	-58	5.9	10732	12	4	7	13
29	CCCCOCCCNC(=O)c1ccc(OCC)cc1	-17	4.7	2389	.	.	0	-12
30	COCCNC(=S)Nc1ccc(N2CCCCC2)cc1	-12	5.1	3025	19	17	-3	0
31	COc1ccc(-n2cccc2/C=C2\C(=N)N3N=C(C(C)C)SC3=NC2=O)cc1	-21	.	2182	.	.	.	-14
32	O=C(NN1CCOCC1)c1ccc(Cl)c(Cl)c1	-2	0.2	5047	12	-16	1	3
33	COc1ccccc1/C=C/C(=O)NCC(=O)N/N=C/c1cc(Br)ccc1OC	-10	.	2351	.	.	.	0
34	COc1ccc(C2Cc3ccccc3C(=O)O2)cc1 (stereo not drawn)	-27	4.0	10672	14	8	12	4
35	COC(=O)NN=Cc1cn(CCOc2ccc(OC)cc2)c2ccccc12	.	0.9	.	-3	11	3	.
36	Cc1cccc(OCC(=O)NNC(=O)c2ccccc2OCc2c(C)noc2C)c1	-10	4.0	3047	4	2	6	.
37	CC(=O)c1cccc(NC(=O)CN(c2ccc(C)cc2)S(=O)(=O)c2cccc3nonc23)c1	-4	-2.2	2510	.	.	1	-2
38	Cc1ccc2nc(N(CCCN(C)C)C(=O)c3sc4ccccc4c3Cl)sc2c1	-3	-0.9	10245	14	6	-24	8
39	CSc1cccc(NC(=O)Cc2ccccc2[N+](=O)[O-])c1	-4	1.4	4505	-5	7	-7	-4
40	O=C(CNCCc1ccccc1)N1CCc2ccccc2C1	-23	2.2	4354	9	6	3	6
41	COc1ccc(-c2nn(-c3ccccc3)cc2C=NN2C(=O)CSC2=S)cc1	.	6.6	.	6	11	-1	.
42	CCOC(=O)c1c(NC(=O)CN(CC)CC)sc2c1CCC2	-20	7.4	10094	4	4	33	1
43	CCCCOC(=O)C1=C(N)OC2=C(C(=O)CC(C)(C)C2)[C@]12C(=O)N(C)c1ccccc12	-29	3.1	2823	.	.	-1	-9
44	O=C(Nc1ccc(Cl)cc1)Nc1nnc(CSCc2ccccc2Cl)s1	1	1.3	2894	5	-3	0	2
45	O=c1c2cccnc2n(-c2ccccc2)n1Cc1c(Cl)cccc1Cl	-8	3.9	4687	1	-3	3	1
46	COc1cccc(/C=C/C(=O)OCC(=O)Nc2ccc(Cl)cn2)c1	-21	.	3901	.	.	.	0
47	CCOC(=O)c1c(C)[nH]c(-c2csc(N)n2)c1C	-43	4.0	4421	-5	-4	-8	.
48	CCC(Sc1ncccc1Nc1ccccn1)C(=O)O (stereo not drawn)	-28	1.0	5218	1	8	1	-5
49	Nc1nc2c(nc(SCc3ccccc3Br)n2C2OC(CO)C(O)C2O)c(=O)[nH]1 (stereo not drawn)	-2	-2.8	5082	-4	1	-6	2
50	Fc1ccc(N/N=C2/CCSc3sccc32)c(F)c1	-25	.	3360	.	.	.	0
51	CN(C)c1nc(N/N=C\c2ccc(Cl)c([N+](=O)[O-])c2)nc(Nc2ccc(F)cc2)n1	-20	.	8107	.	.	.	-1
52	COc1ccc(OC)c(-c2nc(C(=O)NCCCN3CCOCC3)cc3c2[nH]c2ccccc23)c1	54*	-0.8	5863	.	.	-2	5
53	COc1cc(C(=O)NC2CCN(Cc3nnnn3Cc3ccc(F)cc3)CC2)cc(OC)c1OC	-14	8.0	5113	8	-1	-1	-2
54	Cc1ccc(Sc2cnc(N)nc2C)cc1	-10	4.0	4123	10	2	3	-2
55	CCCc1cc(C(=O)Cc2ccccn2)c(O)cc1O	-26	4.3	3549	2	2	-2	10
56	O=C(CSc1ccccn1)Nc1ccc(NC(=O)CSc2ccccn2)cc1	-21	2.2	2630	0	8	2	-1
57	O=C(Nc1ccc2nc3n(c(=O)c2c1)CCCC3)c1cccnc1Cl	-46	4.1	6121	.	.	2	4
58	CCCc1cc(=O)[nH]c(N2CCN(Cc3ccc4c(c3)OCO4)CC2)n1	-4	-6.1	3576	-9	-1	6	1
59	CCOC(=O)C1C(=O)C=C(c2ccc(NS(C)(=O)=O)cc2)CC1c1ccco1 (stereo not drawn)	-39	5.5	6820	11	7	-2	1
60	Cc1c(S(=O)(=O)c2ccccn2)c(N)n(Cc2cccc(Cl)c2)c1C	.	5.8	?	0	0	1	6
61	COC(=O)C(NNc1ccccc1)(NC(=O)c1cccc(F)c1)C(F)(F)F (stereo not drawn)	-58	6.6	3615	16	10	-6	-4
62	C=CCNC(=S)/N=c1/scc(C)n1C	-34	.	2656	.	.	.	2
63	CCCCn1c(=O)c(-[n+]2ccccc2)c([O-])c2ccccc21	-15	0.5	4700	.	.	9	6
64	O=C(O)C(Cc1c[nH]c2ccccc12)NS(=O)(=O)c1ccc2ccccc2c1 (stereo not drawn)	0	4.9	2604	4	8	2	0
65	O=C(O)c1ccc(N/N=C/c2ccc(-c3ccccc3)cc2)cc1	-67	.	3327	.	.	.	5
66	O=C(Cc1ccc(NC(=O)C2CCCN(C(=O)C3CCC3)C2)cc1)Nc1cccc(C(=O)N2CCCC2)c1 (stereo not drawn)	-13	5.2	3384	-5	3	4	.
67	Cc1ccc(C(=O)C=Cc2cccc(C)c2)cc1	-73	11	3461	.	.	12	.
68	C=CCNC(=O)/C(C#N)=C/c1c(C)nn(-c2ccc(Cl)cc2)c1Cl	-12	-1.6	1998	15	7	-7	4
69	O=C(O)C(Cc1c[nH]c2ccccc12)NS(=O)(=O)c1cccc2nsnc12 (stereo not drawn)	-22	0.9	2472	1	12	-1	-4
70	CN1CCN(c2ccc(NC(=S)NC(=O)/C=C/c3ccco3)cc2)CC1	-34	0.0	5144	10	5	89*	-4
71	CCC(=NO)C(C)(C)/[N+]([O-])=C/c1ccc(Br)cc1	.	4.0	.	4	2	10	.
72	O=C(c1cc2ccccc2o1)N1CCN(c2cccc(C(F)(F)F)c2)CC1	-21	2.1	5604	2	4	-1	-2
73	O=C(Nc1cccc2nsnc12)c1cccnc1	-35	3.5	1930	10	3	2	-8
74	Cc1csc2nc(O)c(C(=O)NCc3ccc4c(c3)OCO4)c(=O)n12	8	16	.	5	0	4	-5
75	CN(C)C(=O)Oc1cc(=O)n2c3c(cccc13)CCC2	-7	3.1	1919	3	-2	7	0
76	COc1ccc(NC(=O)c2cccc(NC(=O)c3ccccc3)c2)c(OC)c1	-64	3.3	4267	4	-3	10	7

Single records, from the list above.
Entry for `C=CCNC(=O)/C(C#N)=C/c1c(C)nn(-c2ccc(Cl)cc2)c1Cl` = PrP UTR inh: -12; RN4220 kill: -1.6; Bead autofluor: 1998; Mtb hypoxia rep: 15; Mtb hypoxia rep growth: 7; Sa ugtP lethal: -7; BJeLR lethal: 4
Entry for `O=C(Nc1cccc2nsnc12)c1cccnc1` = PrP UTR inh: -35; RN4220 kill: 3.5; Bead autofluor: 1930; Mtb hypoxia rep: 10; Mtb hypoxia rep growth: 3; Sa ugtP lethal: 2; BJeLR lethal: -8
Entry for `CN1CCN(c2ccc(NC(=S)NC(=O)/C=C/c3ccco3)cc2)CC1` = PrP UTR inh: -34; RN4220 kill: 0.0; Bead autofluor: 5144; Mtb hypoxia rep: 10; Mtb hypoxia rep growth: 5; Sa ugtP lethal: 89*; BJeLR lethal: -4
